# INS promoter inh: TRM-6 insulin promoter activity inhibition; AID 1273; TRM-6 cells (human fetal islet line), insulin promoter-eGFP reporter, imaging; reporter expression induced with tamoxifen; inhibition, % at 2 µM; 0.9% of 130,000 active;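 active = inhibition above the mean plus 3 SD, with well images judged a real hit on visual review, cut at about 60% in these data, passing the limit was not always enough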
# GALR2 ag: activates the human galanin receptor 2; 0.48% of 140,000 active; GALR2-expressing cells, agonist activation read-out; activation, %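 (tested at 5 µM)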; AID 803;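 active = above mean plus 3 SD of all compounds, about 5% in these data, not always enough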;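 note: 0% = vehicle buffer wells and 100% = reference agonist at full effect; tested in CHO reporter cells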
# Target sequence (O43603 whole entry, looked up): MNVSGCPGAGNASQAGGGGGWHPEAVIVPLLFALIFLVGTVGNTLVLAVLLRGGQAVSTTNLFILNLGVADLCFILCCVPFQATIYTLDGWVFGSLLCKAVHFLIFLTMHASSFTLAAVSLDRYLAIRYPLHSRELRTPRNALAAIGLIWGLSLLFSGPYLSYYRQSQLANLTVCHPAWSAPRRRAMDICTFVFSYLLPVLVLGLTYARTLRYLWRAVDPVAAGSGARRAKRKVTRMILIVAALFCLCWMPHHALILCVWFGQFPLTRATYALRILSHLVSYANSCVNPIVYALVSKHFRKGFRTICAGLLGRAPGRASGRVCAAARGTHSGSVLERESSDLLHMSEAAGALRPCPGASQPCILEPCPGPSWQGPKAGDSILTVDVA
# RGS16-Gao: RGS16-Galphao interaction regulator (human); O15492+P09471; bead-based flow cytometry RGS16-Galphao binding, fluorescence; actives lie on both sides; binding response (% of control), % at 10 µM; 0.38% of 220,000 active; AID 1441;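 active = below 25% or above 175%, edge rows of some plates excepted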;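 note: Galphao activated by GDP with aluminum fluoride before binding; 100% = wells without compound and 0% = beads without RGS; some results beyond the cut were filed as inactive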
# Target sequence (O15492 whole entry, looked up): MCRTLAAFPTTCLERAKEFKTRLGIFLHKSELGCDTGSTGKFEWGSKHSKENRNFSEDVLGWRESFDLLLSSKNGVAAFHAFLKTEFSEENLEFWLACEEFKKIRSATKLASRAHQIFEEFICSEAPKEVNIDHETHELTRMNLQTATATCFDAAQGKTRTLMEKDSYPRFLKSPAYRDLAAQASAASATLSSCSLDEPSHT
# Target sequence (P09471 whole entry, looked up): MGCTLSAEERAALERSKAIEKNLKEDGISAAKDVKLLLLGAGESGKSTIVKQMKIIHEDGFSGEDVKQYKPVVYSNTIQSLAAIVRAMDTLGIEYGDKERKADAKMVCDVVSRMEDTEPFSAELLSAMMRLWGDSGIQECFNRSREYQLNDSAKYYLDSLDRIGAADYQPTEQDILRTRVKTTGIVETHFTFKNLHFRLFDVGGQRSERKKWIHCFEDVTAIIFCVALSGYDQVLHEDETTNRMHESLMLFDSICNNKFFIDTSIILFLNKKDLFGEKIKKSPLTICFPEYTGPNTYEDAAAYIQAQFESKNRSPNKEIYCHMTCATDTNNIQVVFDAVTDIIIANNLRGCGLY
# HSV replic up: HSV replication enhancement. AID 1956. 0.005% of 220,000 active. maximum fold increase. HSV replication augmentation in cells, fold increase;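 active = peak rise of 1.5-fold or more in the series; tested in PC3 cells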;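 note: first round at 10 µM; read as green reporter fluorescence; hits show the peak of a series up to 25 µM; 1 = signal of infected wells without compound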
# PKD1 inh: blocks activity of human protein kinase D1 | 0.056% of 200,000 active | AID 797 | inhibition, %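 (about 10 µM by stock and volumes)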 | PKD1 kinase fluorescence polarization assay | Q15139;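 active = inhibition of 50% or more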;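 note: controls were vehicle for no effect and a reference inhibitor for full effect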
# INS promoter inh cell count: further read-out of INS promoter inh, marked with its call; normalized cell count, %; measured here: cell count, toxicity; reference of the scale not given here;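 cells exposed to compound for 48 h; stained nuclei by imaging scaled within each plate; lower means fewer cells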
# HSV replic up primary fold: also measured in HSV replic up; calls as there; fold increase; compound at 10 µM; measured here: primary screen fold increase 10 uM; tested in PC3 cells;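 GFP signal in the first replicate; 1 = infected wells without compound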
# Active calls of the source: *; i = inactive; x = not tested or not shown.
no.	canonical_smiles	INS promoter inh	INS promoter inh cell count	GALR2 ag	RGS16-Gao
1	COc1cc(C2C(C#N)=C(N)Oc3n[nH]c(-c4cccnc4)c32)cc(Br)c1O (stereo unspecified)	-22	81	x	61
2	COc1ccc(/C=N/NC(=O)Cn2ccnc2C)cc1OC	x	x	x	93
3	CCOc1cccc2cc(C(C)=O)oc12	47	131	x	5.6*
4	Clc1ccc(-c2nnc3n2CCCCS3)cc1	-8	63	-2.8	96
5	CC(=O)NCCn1c(SCC#N)nc2ccccc2c1=O	x	x	-3.0	96
6	O=C(Cn1nc(-c2ccccc2)c2ccccc2c1=O)Nc1cccnc1	77*	61*	0.6	99
7	CS(=O)(=O)N1CCN(C(=O)c2ccccc2F)CC1	28	139	-1.2	87
8	Cc1ccc(OC(=O)c2cccc(S(=O)(=O)N3CCCC3)c2)c(-n2nc3ccccc3n2)c1	7	171	0.4	95
9	CN(C)CCOc1ccc(Cl)cc1C(C)(C)C	x	x	x	98
10	O=C(Nc1ccc(F)cc1)Nc1cc(S(=O)(=O)N2CCOCC2)ccc1N1CCCC1	x	x	x	92
11	COc1cc(CNCCN2CCOCC2)ccc1OCc1ccc(Cl)cc1Cl	x	x	0.4	100
12	COc1ccc(C(=O)COC(=O)C(CCCCN2C(=O)C3C4C=CC(C4)C3C2=O)N2C(=O)C3C4C=CC(C4)C3C2=O)cc1 (stereo unspecified)	49	91	-0.9	110

no.	HSV replic up	HSV replic up primary fold	PKD1 inh
1	i	0.98	-1
2	i	0.95	x
3	i	0.99	-11
4	i	0.98	-3
5	i	0.86	-2
6	i	1	-3
7	i	0.97	-3
8	i	1	-3
9	i	0.83	-2
10	i	0.93	-9
11	i	0.81	0
12	i	1	-4

# Pulled by compound from above:
no.	canonical_smiles	INS promoter inh	INS promoter inh cell count	GALR2 ag	RGS16-Gao
4	Clc1ccc(-c2nnc3n2CCCCS3)cc1	-8	63	-2.8	96
1	COc1cc(C2C(C#N)=C(N)Oc3n[nH]c(-c4cccnc4)c32)cc(Br)c1O (stereo unspecified)	-22	81	x	61
10	O=C(Nc1ccc(F)cc1)Nc1cc(S(=O)(=O)N2CCOCC2)ccc1N1CCCC1	x	x	x	92
3	CCOc1cccc2cc(C(C)=O)oc12	47	131	x	5.6*
11	COc1cc(CNCCN2CCOCC2)ccc1OCc1ccc(Cl)cc1Cl	x	x	0.4	100
7	CS(=O)(=O)N1CCN(C(=O)c2ccccc2F)CC1	28	139	-1.2	87
12	COc1ccc(C(=O)COC(=O)C(CCCCN2C(=O)C3C4C=CC(C4)C3C2=O)N2C(=O)C3C4C=CC(C4)C3C2=O)cc1 (stereo unspecified)	49	91	-0.9	110

no.	HSV replic up	HSV replic up primary fold	PKD1 inh
4	i	0.98	-3
1	i	0.98	-1
10	i	0.93	-9
3	i	0.99	-11
11	i	0.81	0
7	i	0.97	-3
12	i	1	-4

# The listing continues.
no.	canonical_smiles	INS promoter inh	INS promoter inh cell count	GALR2 ag	RGS16-Gao
13	Nc1nc(-c2ccc(Br)cc2)c(S(=O)(=O)c2ccccc2)s1	x	x	-0.5	104
14	COC(=O)/C=c1/s/c(=C(\C#N)C(=O)NCc2ccco2)n(-c2ccc(C)cc2)c1=O	x	x	0.3	38
15	COC(=O)C1=C(C)NC(C)=C(C(=O)OC)C1c1ccccc1[N+](=O)[O-]	39	129	-0.8	x
16	CC(=O)NCc1c(Cl)cccc1-n1cccc1	18	99	-2.5	91
17	COc1ccc(CNC(=O)c2noc(C(C)C)c2[N+](=O)[O-])cc1	-50	68	-0.1	101
18	O=S1(=O)CCN2N=C(C34CC5CC(CC(C5)C3)C4)SC2=N1	x	x	x	105
19	O=C(Nc1nccs1)c1cc(S(=O)(=O)N2CCOCC2)c(Cl)cc1Cl	-16	73	-1.1	104
20	S=C(NCc1ccccc1)NNc1ccccc1	x	x	x	110
21	COc1ccc(NC(=O)C(c2ccccn2)N(C(C)=O)c2ccc(C)cc2)cc1 (stereo unspecified)	0	163	-1.0	110
22	Nc1ccc2c(c1)C(=O)N(CCCC(=O)O)C2=O	-6	88	-1.2	104
23	CCOc1cc(C)c(C(C)C)cc1S(=O)(=O)N1CCOCC1	24	114	-1.6	104
24	Cc1c(C(=O)NC(C)C)c(-c2ccccc2)nn1-c1ccccc1	-43	86	-0.8	112

no.	HSV replic up	HSV replic up primary fold	PKD1 inh
13	i	0.86	-7
14	i	0.96	-14
15	i	1.1	10
16	i	0.98	-15
17	i	0.99	-9
18	i	1	-4
19	i	1	-3
20	i	0.89	5
21	i	1.1	7
22	i	0.93	-15
23	i	0.92	4
24	i	1.1	-2

# (further entries)
no.	canonical_smiles	INS promoter inh	INS promoter inh cell count	GALR2 ag	RGS16-Gao
25	CN(C)CCNC(=O)c1ccc2c(c1)N(Cc1ccc(F)cc1)CCS2	x	x	-2.2	7
26	COc1ccc(NC(=S)NNC(=O)c2nnn(-c3ccccc3)c2C)cc1	-3	79	-1.1	91
27	CN1CCN(CCCNC(=O)C2CCN(c3nnc(-n4cccc4)s3)CC2)CC1	x	x	-1.2	100
28	CC1=C(C#N)C(=O)NC(=O)/C1=C/c1ccc(-c2ccc(S(N)(=O)=O)cc2)o1	x	x	x	97
29	COc1ccc2cc3cc(C(=O)Nc4ccc5c(c4)OCCO5)oc3nc2c1	7	106	-1.3	99
30	CCN(CC)CCCNC(=O)c1ccc2c(SCC(=O)O)c3c(nc2c1)CCC3	39	102	-2.4	84
31	CN(Cc1ccccc1)C(=O)c1nc2ccccn2c1CNCCn1cccn1	x	x	x	99
32	CC(=O)c1ccc2c(c1)C1C=CCC1C(c1ccncc1)N2 (stereo unspecified)	-29	84	-4.4	92
33	Cc1ccc(C(=O)Nc2ccc(C(=O)/C=C/c3cccs3)cc2)cc1	-29	90	-1.6	86
34	CCOC(=O)Cn1cc(/C=N/N2C(=O)C3C4C=CC(C4)C3C2=O)c2ccccc21 (stereo unspecified)	x	x	x	96
35	Cc1cc(C)c(C)c(S(=O)(=O)NCC(=O)N2CCCC2)c1C	20	120	-0.5	91
36	Cc1sc(NC(=O)c2ccccc2)c(C(=O)c2ccccc2)c1C	12	129	-0.8	67

no.	HSV replic up	HSV replic up primary fold	PKD1 inh
25	i	1.1	-5
26	i	0.93	-9
27	x	x	5
28	i	1.1	10
29	i	0.67	-16
30	i	0.94	-2
31	i	1	-1
32	i	0.93	-6
33	i	1.1	-4
34	i	0.84	-5
35	i	1	-4
36	i	1	-1

# More results.
no.	canonical_smiles	INS promoter inh	INS promoter inh cell count	GALR2 ag	RGS16-Gao
37	CCN(CC)S(=O)(=O)c1cc(NC(=O)CN2C(=O)NC3(CCCc4ccccc43)C2=O)ccc1C (stereo unspecified)	-7	131	-0.4	100
38	COc1cc(-c2cc(C(=O)Nc3nc4ccccc4s3)c3ccccc3n2)cc(OC)c1OC	31	99	-0.4	94
39	CN1OCC(S(=O)(=O)c2ccccc2)C1c1ccccc1 (stereo unspecified)	x	x	x	103
40	Cc1cccn2c(=O)c(/C=C(\C#N)C(=O)NCc3ccco3)c(N3CCCC(C)C3)nc12 (stereo unspecified)	x	x	-0.3	99
41	CCc1ccc(N2CSC3=C(C#N)C(c4cccs4)CC(=O)N3C2)cc1 (stereo unspecified)	42	108	-1.9	64
42	CCOC(=O)c1cnc(COc2ccccc2Cl)[nH]c1=O	x	x	x	103
43	CCCC[C@@H]1CNC(=O)C(=O)N1CC(C)(C)C	x	x	x	101
44	Cc1ccc([N+](=O)[O-])cc1NCC(=O)NN	x	x	x	99
45	N/N=C/C(=N\Nc1ccc(Cl)cc1)C(=O)c1ccncc1	x	x	x	97
46	CC(=O)NC(CCS(C)(=O)=O)C(=O)Nc1ccc(C)c(F)c1 (stereo unspecified)	9	134	-2.2	110
47	COC(=O)CSc1nc2ncc(Cl)cc2[nH]1	18	136	-0.9	101
48	Cc1cccc(Nc2nnc(SCc3cc(=O)n4cc(C)ccc4n3)s2)c1	x	x	-1.5	86

no.	HSV replic up	HSV replic up primary fold	PKD1 inh
37	i	0.89	7
38	i	0.8	-1
39	i	0.95	5
40	i	1.1	-4
41	i	1.2	-11
42	i	0.92	x
43	i	0.93	x
44	i	1	-4
45	i	0.82	x
46	i	1.1	-9
47	i	1.2	6
48	i	1	-4

# (further entries)
no.	canonical_smiles	INS promoter inh	INS promoter inh cell count	GALR2 ag	RGS16-Gao
49	Cc1ccc(NCN2C(=O)C3CC=C(Cl)CC3C2=O)cc1 (stereo unspecified)	31	112	-0.2	97
50	CC(=O)C12C3C4C(C5C1C3C5(Br)C41OCCO1)C21OCCO1 (stereo unspecified)	22	111	-0.2	22*
51	CC1(C)CC(=O)C2=C(C1)N1C(=C(C#N)C2c2ccccc2Cl)N=C(N)c2ccccc21 (stereo unspecified)	-2	100	0.3	103
52	N#Cc1c(N)nc2c(c1-c1ccccc1)CCC2	16	97	x	99
53	O=C(Nc1ccc(-c2cc3ccccc3oc2=O)c(Cl)c1)c1cccnc1	x	x	-0.8	103
54	O=C(COC(=O)c1cccc2ccccc12)NCC1CCCO1 (stereo unspecified)	x	x	x	104
55	O=C(O)C1C2C=CC(C2)C1C(=O)OC1CC2CCC1C2 (stereo unspecified)	x	x	-2.0	104
56	O=S(=O)(Nc1ccccc1O)c1ccc(-c2ccccc2)cc1	-45	63	x	97
57	CC1CCCC(NC(=O)C2c3ccccc3C(=O)N2Cc2cccs2)C1C (stereo unspecified)	-25	79	0.1	31
58	CCCCOC(=O)/C=C/c1ccc(OC(=O)OC)c(OC(=O)OC)c1	x	x	0.0	103
59	Cc1ccc(-c2c3c(=O)n(C)c(=O)n(C)c3cn2N2CCOCC2)cc1	x	x	-0.1	109
60	Cc1ccc(OCC(=O)Nc2ccc(S(=O)(=O)Nc3onc(C)c3C)cc2)cc1	50	170	-3.2	92

no.	HSV replic up	HSV replic up primary fold	PKD1 inh
49	i	1.1	-4
50	i	1.1	-9
51	i	0.98	-11
52	i	0.85	-7
53	i	0.81	7
54	i	0.93	0
55	i	0.67	-10
56	i	0.98	-2
57	i	0.98	1
58	i	1.1	-2
59	i	1.1	-3
60	i	0.93	0

# New compounds follow.
no.	canonical_smiles	INS promoter inh	INS promoter inh cell count	GALR2 ag	RGS16-Gao
61	Cc1cc(C)n(C(=O)/C(C#N)=N/Nc2cc(Cl)cc(Cl)c2)n1	18	42	x	112
62	Clc1ccc2c(c1)nc1n2CCCC1	x	x	x	104
63	C#Cc1ccc(C(=O)Nc2ccc(N3CCC(C)CC3)c(C(N)=O)c2)cc1	8	104	x	102
64	CCn1c(SCC(=O)Nc2cc3oc4ccccc4c3cc2OC)nnc1-c1cccs1	-31	76	-0.1	105
65	C/C(=N\NS(=O)(=O)c1ccc(C)c([N+](=O)[O-])c1)c1cc2ccccc2o1	x	x	-1.7	85
66	O=C(Cc1ccc(Cl)c(Cl)c1)Nc1ccc(SC(F)F)cc1	27	86	1.1	155
67	OCCN1CCN(C(=S)Nc2cccc(C(F)(F)F)c2)CC1	x	x	x	107
68	O=C(Cn1cccc1C(=O)c1ccccc1)NCCC1=CCCCC1	0	97	x	104
69	CC1CC(C)CN(CCC(=O)Nc2cccc(Cl)c2)C1 (stereo unspecified)	32	151	0.0	107
70	CN(C)S(=O)(=O)c1cc(NC(=O)COC(=O)Cc2cccc3ccccc23)ccc1Cl	x	x	0.0	104
71	O=C1OCCC1Sc1nc(-c2ccccc2)cs1 (stereo unspecified)	28	117	-1.9	101
72	O=S(=O)(c1ccc(OCC(O)CN2CCCCC2)cc1)N1CCOCC1 (stereo unspecified)	29	96	0.0	101

no.	HSV replic up	HSV replic up primary fold	PKD1 inh
61	i	0.82	-6
62	i	0.92	x
63	i	0.81	1
64	i	0.77	1
65	i	0.94	-3
66	i	0.87	8
67	i	0.92	x
68	i	0.95	-4
69	i	0.89	-8
70	i	1.1	-3
71	i	1.1	-9
72	i	1.1	-7

# Other structures
no.	canonical_smiles	INS promoter inh	INS promoter inh cell count	GALR2 ag	RGS16-Gao
73	N#Cc1c(Nc2ccccc2)sc(C(=O)c2ccc(F)cc2)c1N	18	134	1.8	108
74	CC(C)Nc1nc(SC(C)C(=O)Nc2ccccc2)nc(N(C)C)n1 (stereo unspecified)	62	53	x	101
75	C=C(C)[C@H]1CC=C(C)/C(=N/NC(=O)CNc2ccccc2OC)C1	32	75	-0.9	103
76	O=C(Nc1ccc(S(=O)(=O)Nc2ccccc2)cc1)c1ccc(CN2CCOCC2)cc1	x	x	x	94
77	O=C(c1ccco1)N1CCN(c2ncnc3scc(-c4ccccc4)c23)CC1	-17	82	1.3	117
78	O=C(CSCc1ccc(F)cc1)NCc1ccco1	-4	151	-1.7	103
79	Cc1cccc(C)c1NC(=O)CNc1ccccc1	-48	75	-2.3	92

no.	HSV replic up	HSV replic up primary fold	PKD1 inh
73	i	0.82	-7
74	i	0.94	12
75	i	1.1	-22
76	i	0.99	2
77	i	0.87	-3
78	i	0.95	2
79	i	0.98	-2

# Source: PubChem
